Screening results from PubChem BioAssay.
NS1 inh – inhibitors of influenza NS1 protein function | S. cerevisiae slowed by influenza A NS1, growth recovery by OD600 | Potency, µM (series often up to 46.1 µM), without a hit: at the highest dose activity, positive = more growth | 0.4% of 270,000 active | AID 2326; active means well fitted rising curve with a large enough effect; inconclusive means small, poorly fitted or top-dose-only effect; inactive means no such curve, though single readings can be large or run the other way; note: nearly all actives have a fitted effect of over 50% in size
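A cell-based growth assay was used: compounds that relieve NS1-induced slow growth of budding yeast raise OD600. Assay medium was yeast nitrogen base with ammonium sulphate and -URA supplement, pH 6.0, with 2% galactose.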
Lassa entry inh – blocks Lassa virus binding to or entry into cells. Lassa virus pseudotype entry inhibition, cell reporter; control for the full effect not named in the record. Potency, µM (highest dose often 37.9 µM), inactives show top-dose activity change, negative = inhibition, hits mostly inhibitors. 1.2% of 300,000 active. AID 540256; active means well fitted inhibition curve with a large enough effect; inconclusive means small, poorly fitted or top-dose-only effect, or effect the other way; inactive means flat fitted curve, though single readings scatter; tested in HEK293 cells; note: % is set by controls: 0 for no effect and ±100 for the full control effect; nearly all actives have a fitted effect of over 50% in size; luciferase read-out
Cruzain inh noDet – inhibitors of Trypanosoma cruzi cruzain without detergent; purified cruzain, Z-FR-AMC fluorescence, no detergent; Potency, µM, inactives show max response, negative = inhibition, hits mostly inhibitors; 2.3% of 200,000 active;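 note: plate controls were enzyme without inhibitor for no effect and buffer without enzyme for full effect; nearly all actives have a fitted effect of over 40% in size; top concentration of the series not given in the record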
Target sequence (P25779 123-467 limits assumed): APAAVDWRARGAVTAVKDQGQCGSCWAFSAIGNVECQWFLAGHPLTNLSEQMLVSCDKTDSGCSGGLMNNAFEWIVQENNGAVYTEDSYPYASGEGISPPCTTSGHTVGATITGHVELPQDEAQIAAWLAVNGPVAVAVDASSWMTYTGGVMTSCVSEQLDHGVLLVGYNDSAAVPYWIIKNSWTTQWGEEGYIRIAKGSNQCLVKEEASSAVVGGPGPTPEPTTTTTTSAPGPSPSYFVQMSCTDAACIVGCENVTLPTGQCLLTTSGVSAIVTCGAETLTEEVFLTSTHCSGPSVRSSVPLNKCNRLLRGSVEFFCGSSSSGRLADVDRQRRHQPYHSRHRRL
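Purified cruzain at 1.5 nM, pre-incubated 15 min with compound at room temperature in 100 mM sodium acetate pH 5.5, 5 mM DTT, 0.00005% Triton X-100. Reaction started with 2 uM Z-FR-AMC; AMC fluorescence increase over 60 s gives rate.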
2A StopGo – lowers the luciferase signal of an FMDV 2A StopGo reporter. Potency, µM (titrated, usually from 57.9 µM), inactives show at the highest dose signal change, negative = less light. 1.2% of 410,000 active. human cells with a luciferase reporter of 2A StopGo recoding; control for the full effect not named in the record; active = well fitted falling curve with a large enough effect; inconclusive = small, poorly fitted or top-dose-only effect; inactive = no such curve, though single readings can be large or run the other way; tested in HEK293T cells; note: % is set by controls: 0 for no effect and ±100 for the full control effect; nearly all actives have a fitted effect of over 45% in size; luciferase light after 4 h
Cruzain Triton – cruzain (T. cruzi) inhibition with detergent; purified cruzain, Z-FR-AMC fluorescence, 0.01% Triton; 0.43% of 200,000 active; Potency, µM, for the others: max response, negative = inhibition, actives largely listed as inhibitors; P25779;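 note: plate controls were neutral wells for no effect and buffer without enzyme for full effect; nearly all actives have a fitted effect of over 40% in size; top concentration of the series not given in the record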
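Read-out: AMC fluorescence (360 nm excitation, 450 nm emission), four reads over 2 min, first-to-third difference used. Conditions: cruzain 1.5 nM, Z-FR-AMC 2 uM, pH 5.5 acetate, 5 mM DTT, 0.01% Triton X-100.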
MARV entry inh – inhibitors of Marburg virus binding or cell entry; Marburg virus pseudotyped entry inhibition, cell reporter; control for the full effect not named in the record; about a third of the inactives were read at about 46 µM; 1.8% of 300,000 active; Potency, µM (highest dose often 37.8 µM), inactives show top-dose activity change, negative = inhibition, hits mostly inhibitors; active = well fitted inhibition curve with a large enough effect; inconclusive = small, poorly fitted or top-dose-only effect, or effect the other way; inactive = flat fitted curve, though single readings scatter; tested in HEK293 cells; about a fifth of its hits are not listed in these tables; note: % is set by controls: 0 for no effect and ±100 for the full control effect; luciferase read-out
RE007 growth inh – less growth of the S. pombe RE007 Vpr strain; S. pombe RE007 Vpr strain, BacTiter-Glo ATP luminescence, 24 h; control for the full effect not named in the record; Potency, µM (top dose mostly 92.2 µM), without a hit: at the highest dose activity change, negative = less growth; 0.21% of 360,000 active; active = well fitted falling curve with a large enough effect; inconclusive = small, poorly fitted or top-dose-only effect; inactive = no such curve, though single readings can be large or run the other way;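 note: % is set by controls: 0 for no effect and ±100 for the full control effect; nearly all actives have a fitted effect of over 50% in size; the assay follows cell death caused by Vpr and the record does not say whether a fall means rescue or toxicity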
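Fission yeast RE007 carrying one integrated HIV-1 vpr copy, seeded at OD 0.01 in PMG+AL medium with 23 nL pinned compound. Grown 24 h at 30 degrees; viability read by BacTiter-Glo luminescence after 5 min.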
SARS PLpro yeast – SARS-CoV PLP inhibition in yeast; AID 485353; 0.19% of 330,000 active; S. cerevisiae expressing SARS-CoV PLpro, growth rescue; control for the full effect not named in the record; Potency, µM (titrated, usually from 32.9 µM), for inactives: top-dose activity, positive = growth rescue; active means well fitted rising curve with a large enough effect; inconclusive means small, poorly fitted or top-dose-only effect; inactive means no such curve, though single readings can be large or run the other way; note: 0% is about no effect; nearly all actives have a fitted effect of over 55% in size; growth read by luminescence after 48 h
Starred values were filed as active, the others as inactive; ? = inconclusive; · = no result given; & = joins results of further samples; [ ] = another dose, or the depositor's remark. Unless noted, calls come from the whole dose curve; as a rule, active = well fitted curve in the direction sought with a large enough effect; inconclusive = small, poorly fitted or top-dose-only effect, or another doubt; inactive = no such curve, though single readings can be large; an effect the other way counts as inactive or inconclusive. Potency is the fitted concentration of half-maximal effect. Compounds were not picked by outcome, and some 4.7% of all compounds hit somewhere here.

SMILES	NS1 inh	Lassa entry inh	Cruzain inh noDet	2A StopGo	Cruzain Triton	MARV entry inh	RE007 growth inh	SARS PLpro yeast
COCCN1CCN(c2cc(-c3ccccc3)nc3cc(-c4cccc(F)c4)nn23)CC1	-26.1%	?	?	14.1µM*	-13.7%	?	34.6%	-3.9%
Cc1ccccc1NC(=O)c1ccc(C)c(S(=O)(=O)N2CCN(C)CC2)c1	2.8%	·	·	2.5%	·	·	4.5%	2.0%
CCCC(=O)NC(=S)Nc1c(C)cc(Br)cc1C	·	-13.5%	·	23.1%	·	8.9%	0.2%	·
Cc1cccc(OCC(=O)N2CCN(Cc3cc(=O)n4nc(-c5ccccc5Cl)sc4n3)CC2)c1	·	-6.7%[46.1 µM]	6.8%	0.0%	2.6%	·	·	·
CC(C)C(=O)Nc1c(C(=O)c2ccc(F)cc2)oc2ccccc12	0.6%	·	3.4%	-26.8%	-5.8%	·	-4.4%	10.4%
O=C(NC1CCN(C(=O)Nc2ccc(F)cc2)CC1)c1cccc(F)c1	-0.7%	2.7%	·	-20.2%	·	19.0%[46.1 µM]	10.1%	0.3%
CC(=O)Nc1ccc(C(=O)CSc2nnnn2C2CCCC2)cc1	-5.1%	1.1%	·	5.1%	·	9.3%	2.6%	-0.7%
O=C(O)[C@H](Cc1ccccc1)NC(=O)N1CCN(c2ccccc2)CC1	5.9%	·	·	-15.3%	·	·	-6.1%	3.8%
C/C(=N/NC(=O)c1cccc(N2CCCC2=O)c1)c1ccncc1	0.2%	?	·	17.3%	·	?	9.5%	-0.1%
CC1(C)C(C=C(Cl)Cl)C1C(=O)N1CCN(Cc2ccccc2)CC1 (stereo not given)	-34.5%	?	·	?	·	?	22.6%	0.6%
CC(=O)Nc1cccc(NC(=O)CSc2nnc(Cc3cccn3C)n2-c2ccc(F)cc2)c1	-0.9%	-0.8%	?	3.2%	4.6%	4.3%&26.3%	3.4%	0.7%
CCN(CC)S(=O)(=O)c1ccc(C(=O)NC2CN3CCC2CC3)cc1 (stereo not given)	9.2%	·	·	-7.7%	·	·	-11.6%	0.2%
O=C(Nn1c(-c2ccncc2)nc2ccccc2c1=O)c1ccccc1Br	·	-14.5%[46.1 µM]	·	2.3%	·	5.7%[46.1 µM]	-14.7%	2.4%
CC(NC1CCN(Cc2ccccc2)CC1)c1ccc(F)cc1 (stereo not given)	-1.4%	?	·	-20.8%	·	?	13.6%	0.9%
Cn1c(Cn2c(=O)sc3ccccc32)nnc1SCC(=O)N1CCOCC1	-7.5%	·	-6.3%	2.8%	2.0%	·	-5.1%	12.1%
O=C(CSc1nc2c(cnn2-c2ccccc2)c(=O)[nH]1)NCC1CCCO1 (stereo not given)	·	18.6%[46.1 µM]	·	-9.6%	·	3.2%[46.1 µM]	7.0%	-3.1%
CN1C(=O)N2CN(C3CCCCC3)CN3C(=O)N(C)C1C23 (stereo not given)	7.8%	16.2%	2.5%	-1.4%	3.6%	5.7%	-0.6%	1.7%
C=CCn1c(SCCC(=O)O)nc2c1c(=O)n(C)c(=O)n2C	-2.0%	13.3%	-2.8%	·	-0.7%	-0.6%	-2.6%	?
CCOC(=O)c1c(-c2cccs2)csc1NC(=O)CN1CCOCC1	-56.7%	?	?	?	-7.3%	?	18.7%	-5.3%
Nc1ncnc2c1C1(CCCCC1)Cc1ccccc1-2	-9.3%	-7.7%	-2.7%	-1.1%	-1.4%	?	7.4%	?
CCOC(=O)c1ccc(S(=O)(=O)N2CCN(CC(O)COc3cccc(C(C)=O)c3)CC2)cc1 (stereo not given)	-7.3%	-8.7%[46.1 µM]	·	-3.2%	·	-1.8%[46.1 µM]	14.3%	2.0%
COc1ccc(S(=O)(=O)N2CCOC2CNC(=O)C(=O)NCC(C)C)cc1OC (stereo not given)	15.1%	10.4%	·	-23.4%	·	1.1%	-14.8%	1.0%
Cc1cccc(C(=O)N[C@H](C(=O)Nc2ccc3c(c2)OCO3)C(C)C)c1	·	-6.2%[46.1 µM]	·	-1.0%	·	-18.0%[46.1 µM]	-12.0%	-16.6%
O=C(Nc1cccnc1)c1ccc2snnc2c1	-11.6%	12.4%	4.9%	-0.3%	-3.1%	-7.1%	-11.8%	2.2%
O=C(CCN1CCC(c2ccc(Cl)s2)=N1)c1ccc(Cl)s1	-1.9%	·	·	9.9%	·	·	-14.0%	-1.2%
COc1ccc(NC(=S)N2CCN(C/C=C/c3ccccc3)CC2)c(OC)c1	·	1.3%	·	-21.7%	·	-2.0%[46.1 µM]	15.5%	14.7%
O=C1c2cc(O)c(O)cc2OC(c2ccc(O)c(O)c2)C1O (stereo not given)	·	1.9%[46.1 µM]	·	-8.6%	·	27.8%	-17.1%	·
Cc1ccccc1S(=O)(=O)/N=C(/c1ccccc1)N(C)C	1.5%	·	·	12.5%	·	·	-19.8%	-4.9%
CCc1cc(-c2n[nH]c(=S)n2-c2ccccc2C)cs1	-14.7%	-4.9%	-0.2%	-5.4%	-8.0%	8.7%	5.1%	-0.9%
CC(=O)N1CCc2c(sc(NC(=O)CN3C(=O)c4ccccc4C3=O)c2C(N)=O)C1	-8.4%	·	·	-5.9%	·	·	-5.2%	-0.6%
O=C(CCNC(=O)c1ccccc1)NCCc1ccc(Cl)cc1	5.0%	-25.6%[46.1 µM]	·	-11.9%	·	-1.3%[46.1 µM]	-4.4%	-2.5%
CC(=O)Nc1sc2c(c1C(c1ccccc1Cl)N1CCN(CCO)CC1)CCCC2 (stereo not given)	0.5%	·	·	-25.2%	·	·	1.5%	0.3%
COc1ccc(Cc2nnc(NC(=O)C(C)(C)C)s2)cc1	3.4%	-1.0%	·	1.2%	·	-10.1%[46.1 µM]	-9.0%	1.0%
CCCc1cc(=O)n2[nH]c(NC(=O)c3ccco3)nc2n1	10.5%	·	·	1.1%	·	?	17.2%	-3.8%
O=C(CCc1ccccc1)Nc1nccs1	8.3%	·	·	40.6%[activator]	·	·	-5.2%	1.9%
CC(C)(C)C(=O)c1cn(Cc2ccccc2)c2ccccc12	-5.4%	·	·	-20.8%	·	?	20.1%	-0.3%
COc1ccccc1Nc1nc2nonc2[nH]c1=O	-1.2%	?	·	-7.8%	·	?	-8.9%	-2.6%
N/C(=N\OC(=O)COc1ccc(Cl)cc1Br)c1cccnc1	·	6.8%	·	52.1%[activator]	·	-16.6%[46.1 µM]	-13.4%	1.3%
COc1ccc(C(=O)N/N=C(\N)c2cc3ccccc3oc2=O)cc1	7.9%	5.0%[46.1 µM]	·	-9.1%	·	-14.9%[46.1 µM]	0.0%	1.3%
CC(=O)c1cccc(NC(=O)CN2CCc3cc4c(cc3C2C)OCCCO4)c1 (stereo not given)	-14.8%	?	·	?	·	8.4%[46.1 µM]	5.8%	-2.2%
Cn1c(CC(=O)Nc2ccccc2F)nnc1SCC(=O)Nc1nccs1	3.2%	17.8%[46.1 µM]	·	11.7%	·	1.3%[46.1 µM]	10.2%	-1.2%
COCCN1C2=C(COC(C)(C)C2)C(=S)NC1c1ccccc1 (stereo not given)	1.6%	7.8%	·	17.8%	·	4.3%	-19.8%	0.1%
CCCCOc1ccc(/C=C/C(=O)OCC(=O)NC(=O)NCC(C)C)cc1OCC	-1.3%	3.9%	-7.9%	-17.2%	-2.4%	0.8%	·	-22.2%
C/C(=N\N1CCN(c2ccc(Cl)cc2)CC1)c1cccs1	5.8%	7.9%	?	-15.9%	-3.6%	?	-4.3%	-1.1%
O=S(=O)(N[C@H]1C[C@@H](NS(=O)(=O)OCC(Cl)(Cl)Cl)C2CCCCC21)OCC(Cl)(Cl)Cl (stereo not given in full)	16.1%	·	·	?	·	·	-2.5%	1.0%
CN(CC(=O)Nc1ccc(F)cc1)CC(=O)Nc1ccc(Cl)c(S(=O)(=O)N2CCOCC2)c1	-10.8%	?	·	0.0%	·	?	8.1%	-1.2%
Cn1ccnc1C(O)c1ccccc1 (stereo not given)	·	3.0%	·	7.4%	·	15.1%[46.1 µM]	-12.9%	0.5%
COc1cc(C2CC(=O)Oc3c(C(CCN4CCCC(C)C4)c4ccc(N(C)C)cc4)c(OC)cc(OC)c32)cc(OC)c1OC (stereo not given)	-48.0%	·	·	-1.7%	·	·	5.0%	-3.8%
CCOC(=O)C1CCCN(C(=O)C(=O)Nc2ccc3nc4n(c(=O)c3c2)CCCCC4)C1 (stereo not given)	-23.9%	·	·	?	·	·	7.1%	2.5%
Cc1ccc2ncc(C(=O)Nc3ccc(F)cc3F)c(=O)n2c1	·	·	-8.7%	20.9%	1.5%	2.5%[46.1 µM]	·	·
O=c1oc2ccc(Br)cc2cc1-c1nc2ccccc2o1	-11.7%	-2.4%	?	·	4.1%	-1.3%	2.9%	-6.4%
Cc1cc(C)cc(-n2ccn3c(CC(C)(C)CC(=O)O)nnc3c2=O)c1	·	-13.2%[46.1 µM]	-8.6%	9.0%	-3.2%	?	·	·
Cc1ccccc1OCCOC(=O)c1c(-c2ccccc2)noc1C	-34.1%	?	·	?	·	?	11.2%	-4.8%
CCCN1CCN(c2ccc([N+](=O)[O-])cc2C#N)CC1	·	-3.0%[46.1 µM]	·	-13.5%	·	?	-6.1%	1.3%
COc1cc(C(=O)NCc2ccncc2)cc(Br)c1OCc1ccccc1	?	?	·	?	·	?	4.3%	-3.7%
Cn1c(/C=N/n2cnnc2)nc2ccccc21	-1.3%	0.2%	-11.1%	·	-6.1%	3.6%	1.7%	-1.8%
O=C1C(=O)N(CCN2CCOCC2)C(c2ccncc2)/C1=C(/O)c1ccc2c(c1)OCO2 (stereo not given)	-2.7%	21.7%	-0.5%	10.1%	-13.9%	3.2%	0.7%	11.6%
CC1=C(CC/C(C)=N/NC(N)=S)C(C)(C)CCC1	-9.0%	?	-21.6%	-14.1%	-12.6%	20.6µM*	-2.7%	14.1µM*
